Assay outcomes (PubChem)
MT stabilizer – microtubule stabilizers in HeLa cells, primary screen, imaging, high-content imaging; HeLa tubulin immunostaining HCS, 24 h; share of cells brighter than vehicle mean+2SD; % tubulin-high responders, % at 10 µM; actives 0.83% (n = 200,000);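 active means plate Z-score above 3 for both tubulin-high and condensed-nucleus cell shares, with cell loss under 80%, at 10 µM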;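 further: anti alpha tubulin signal scored within the nucleus-defined area of each cell; some results filed as inactive read as strong as hits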
Autophagy mod – autophagy modulators in MEF cells, primary screen, imaging, high-content, MEF GFP-LC3; MEF GFP-LC3 puncta imaging; test concentration mostly 10 µM; calls only at 10 µM (by protocol); actives 0.98% (n = 190,000); AID 463193, 2010;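 active means percentage of spot-positive cells more than 3 SD above its plate mean, without a fluorescence outlier flag or 80% toxicity; inconclusive means no clear call, values can overlap the other calls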;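 further: spot-positive cell cutoff set from DMSO-treated cells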
Yfh1-off respiration – enhancers of respiration in Yfh1-depleted yeast, dose response, Friedreich's ataxia, plus single-dose screen (AID 1465); actives 0.074% (n = 220,000); S. cerevisiae Yfh1-off respiration, WST-1 reduction, 72 h; higher fold induction means a stronger effect; one-dose fold induction at 50 µM; EC50 in µM for titrated hits;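 active means fold induction of absorbance versus untreated yeast above a set limit, then at least 30% activation at any dose in follow-up; inconclusive means repeats straddling the limit, or above it without dose testing; inactive means fold induction below the set limit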;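 further: activators that raise dye reduction in frataxin-depleted yeast; strong numbers were not always called active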
T cell modulator – modulators of CD8 T cell-vesicle binding, primary screen, mouse 2C CD8+ T cells, flow cytometry | calls only at 7 µM | actives 0.068% (n = 330,000) | 2C CD8+ T cell-vesicle binding; stronger effect = lower value | AID 2052, 2009;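 active means response, share of CD8 T cells binding vesicles, and their 90th percentile fluorescence all below set limits, cut at about 80% in these data, passing the limit was not always enough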
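Assay system – 2C mouse CD8+ T cells · Also added – QL9-loaded Drosophila micro-vesicles · Timing – Cell–vesicle co-incubation 1.5 h at 37 °C, staining 20 min on ice · Signal – flow cytometry of vesicle-bound cells · Measure – percent CD8+ FL2 mean versus row control · Controls – Peptide-free naked vesicles (low) and QL9 vesicles with 0.7% DMSO vehicle (high)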
WT yeast gro inh – growth inhibition of WT strain, primary screen, mitochondrial fusion inhibitor project, WT and mutant strains, chemical genetic; mitochondrial fusion phenotypic screen; inhibition, % at 10 µM; actives 2.1% (n = 190,000); AID 1362, 2008; in the data active means inhibition above about 58%; tested in S. cerevisiae
M17LAP inhibition – P. falciparum M17LAP inhibitors, primary screen, biochemical, fluorogenic H-Leu-NHMec substrate, 1536-well (AID 1619) | Leucine aminopeptidase (Plasmodium falciparum (isolate 3D7)) | recombinant M17LAP, H-Leu-NHMec fluorogenic kinetic assay; higher % means a stronger effect | inhibition, % at 30 µM, or IC50 in µM where a hit was titrated | actives 0.38% (n = 220,000);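 active means compound inhibiting the enzyme by more than half at any dose during confirmatory dose-response retesting; inconclusive means strong single-dose inhibitors picked by rank but not retested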;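 further: plate controls were full reaction with DMSO carrier for no effect and no enzyme background for full effect; strong numbers were not always called active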
Dynein cargo inh – inhibitors of GR-EGFP nuclear translocation, primary screen, dynein cargo transport inhibitor project, imaging, high-content, 3617.4 mouse cells; test concentration mostly 20 µM; stimulated with dexamethasone, 1 µM; stronger effect = lower value; z-score, hits read low; actives 0.47% (n = 220,000); AID 1381, 2008;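 active means plate z-score of nuclear minus cytoplasmic receptor signal below a set negative limit, without overly bright fluorescence or cell loss, cut at about -3.5 in these data, passing the limit was not always enough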;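 further: z-score of nuclear minus cytoplasmic ring GR-EGFP intensity difference per well; some compounds called inactive have numbers as strong as hits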
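Also added: dexamethasone, 1.0 µM final. Medium: tet-free, stripped-serum medium. Detection: fixed, Hoechst-stained cells imaged at 10x for EGFP. Read-out: nuclear-to-cytoplasmic GR-EGFP distribution per well. Times: induction 48 h, compound 1 h, agonist 30 min.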
M1AAP inhibition – P. falciparum M1AAP inhibitors, biochemical, fluorogenic H-Leu-NHMec substrate, 1536-well (AID 1445). actives 0.42% (n = 220,000). recombinant M1AAP, H-Leu-NHMec fluorogenic kinetic assay; higher % means a stronger effect. inhibition, % at 30 µM, or IC50 in µM where a hit was titrated. Aminopeptidase N (Plasmodium falciparum (isolate 3D7));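 active means primary inhibition above the hit cutoff, then over 50% inhibition at one or more dose response concentrations, cut at about 23% in these data, passing the limit was not always enough; inconclusive means conflicting primary data, or primary hits not chosen for dose response; inactive means low primary inhibition, or under 50% at every dose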;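 further: plate controls were DMSO full reaction for no effect and no enzyme background for full effect; strong numbers were not always called active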
WT yeast gro inh mutant strain – second read-out of WT yeast gro inh, no call of its own (marks repeat the call); inhibition, %; mitochondrial fusion phenotypic screen, mutant strain inhibition
Dynein cargo inh cytoplasmic EGFP – recorded beside Dynein cargo inh, whose call it bears; z-score; measured here: cytoplasmic GR-EGFP intensity; stronger effect = higher value
Dynein cargo inh nuclear GR-EGFP – recorded beside Dynein cargo inh, whose call it bears; z-score; measured here: nuclear GR-EGFP intensity;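 lower value marks the stronger effect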
Dynein cargo inh cell count – second read-out of Dynein cargo inh, no call of its own (marks repeat the call); z-score; measured here: cell count per field
T cell modulator vesicle-bound % – recorded beside T cell modulator, whose call it bears; double positive events, %; measured here: CD8+ vesicle-bound cell fraction;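 binding gate set so that unloaded-vesicle control wells show 10% double positive cells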
MT stabilizer Hoechst-high % – also measured in MT stabilizer; calls as there; % Hoechst-high responders; measured here: nuclear condensation Hoechst responders;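 share of cells brighter than vehicle mean plus two SD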
MT stabilizer cytotoxicity % – further read-out of MT stabilizer, marked with its call; toxicity, %; measured here: cytotoxicity by cell density;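 0% = mean cell density of plate MIN control wells and 100% = no cells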
Autophagy mod cell loss 18 h – second read-out of Autophagy mod, no call of its own (marks repeat the call); toxicity, %; measured here: cell loss, nuclei count;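 cell loss after 18 h compound exposure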
The depositor's hits bear a star; i = inactive; ? = inconclusive; . = no result given.

Second line of a record: Dynein cargo inh cytoplasmic EGFP	Autophagy mod	M17LAP inhibition	MT stabilizer	Dynein cargo inh nuclear GR-EGFP	MT stabilizer cytotoxicity %	WT yeast gro inh mutant strain	M1AAP inhibition	MT stabilizer Hoechst-high %	Yfh1-off respiration	Dynein cargo inh cell count	Dynein cargo inh	WT yeast gro inh	Autophagy mod cell loss 18 h	T cell modulator vesicle-bound %	T cell modulator
> O=C(N/N=C/c1cccc(Oc2ccc([N+](=O)[O-])cc2[N+](=O)[O-])c1)c1cncc(Br)c1
 : -0.21	i	9%	2.4	-0.84	2.3	-2	0%	1.5	i	0.37	0.053	9	2	26	i
> C=CCN1C(=O)C(CC(=O)Nc2ccccc2)SC1=Nc1ccc(S(N)(=O)=O)cc1 (centres undefined)
 : -0.2	i	-7%	2.8	0.65	7.9	0	5%	1.9	i	0.53	0.2	-5	12	38	i
> Clc1ccc(OCc2cnc(Cl)s2)cc1
 : 0.039	i	3%	2.7	1.1	6.1	-5	4%	1.2	.	0.14	0.66	10	-33	22	i
> CCS(=O)(=O)NCC(c1cccnc1)N1CCN(c2ccccc2F)CC1 (centres undefined)
 : -0.15	i	16%	6.7	0.3	17	5	3%	2.1	i	-0.3	0.31	16	0	20	i
> CCCCn1c(Cl)nc2c1c(=O)n(C)c(=O)n2C
 : -0.18	i	-2%	2.6	-0.24	5.1	-1	-5%	1.3	i	0.33	-0.36	11	2	29	i
> COc1cc(NS(C)(=O)=O)c(OC)cc1NC(=O)c1cccc(F)c1
 : -0.25	i	3%	2.4	-0.093	4.5	-3	4%	1.2	i	0.68	-0.5	5	-6	35	i
> Cc1cc(C)nc(NC(=O)CCCC(=O)O)c1
 : -0.16	i	-7%	0.4	0.31	6.0	-15	9%	1.2	.	-0.66	1.7	7	7	21	i
> Cc1cc(C)c(S(=O)(=O)NCC2CCC(C(=O)NCc3ccc4c(c3)OCO4)CC2)c(C)c1 (centres undefined)
 : -0.049	i	6%	2.6	1	6.4	2	7%	1.0	i	-0.69	0.66	-9	4	18	i
> COC(=O)c1ccccc1Oc1c(F)c(F)nc(N2CCOCC2)c1F
 : -0.21	i	-6%	2.5	-0.7	0.7	30	-3%	1.3	i	-0.61	0.41	28	6	.	.
> COCCN1CN=C(Nc2nc3ccccc3o2)NC1
 : -0.11	i	28%	2.2	-0.61	4.8	15	-5%	1.1	i	0.058	0.038	4	-1	55	i
> CC(=O)N1CCN(Cc2nc3cc(NC(=O)c4ccccc4)ccc3n2C)CC1
 : -0.019	i	-6%	2.4	-0.13	5.6	10	6%	1.5	i	0.19	-0.57	-5	2	34	i
> O=C(CSCc1cccc(Cl)c1)NCc1ccc2c(c1)OCO2
 : -0.097	i	12%	3.0	0.32	3.2	-20	10%	1.9	i	-0.79	-0.032	-2	-1	17	i
> N#Cc1nc(-c2ccc(OCc3ccc(Cl)cc3)cc2)oc1NCCCn1ccnc1
 : -0.2	i	-8%	2.1	0.1	12	17	5%	2.5	i	-0.079	0.26	6	-6	41	i
> CCOC(=O)C1=C(c2ccccc2)NC(=S)NC1c1cc([N+](=O)[O-])ccc1OC (centres undefined)
 : -0.21	i	9%	1.7	-0.23	7.4	-8	12%	1.2	i	0.2	-0.073	-1	0	56	i
> CCCC(O)(CCC)C(=O)NNc1ccccc1
 : -0.29	i	0%	4.3	-0.8	2.7	-2	0%	1.8	i	0.032	-0.32	3	6	46	i
> COc1ccc(NC2=Nc3cccc4cccc2c34)cc1OC
 : -0.19	i	11%	3.4	-0.27	5.2	2	?	2.1	i	0.29	0.11	6	15	60	i
> COCCNC(=O)c1cc(-c2ccc(OC)c(OC)c2)on1
 : -0.21	i	-2%	2.4	-0.16	9.6	15	7%	3.3	i	0.66	-0.41	5	-2	28	i
> O=C(Nc1nc(-c2ccccc2)c(-c2ccccc2)o1)c1ccc(F)cc1
 : -0.059	i	9%	4.4	0.32	7.3	24	-14%	1.4	i	0.64	-0.24	17	-24	54	i
> Cc1ccccc1OCCCC(=O)NCc1ccco1
 : -0.072	i	-2%	1.1	0.012	10	2	2%	1.4	i	0.54	-0.37	-1	4	.	.
> Cc1cc(OCC(F)(F)C(F)(F)C(F)(F)C(F)F)nc(N)n1
 : -0.22	i	19%	1.8	-0.88	7.2	-17	20%	1.2	i	0.76	-0.36	-8	2	6	i
> CCOC(=O)N1CCC(n2c(SCC(=O)c3ccccc3)nc3ccsc3c2=O)CC1
 : -0.14	i	-4%	1.9	0.61	11	10	-4%	1.1	i	-0.82	0.042	10	8	50	i
> Cc1c(Br)c([N+](=O)[O-])nn1C(C)C(=O)Nc1ccc2c(c1)OCO2 (centres undefined)
 : -0.18	i	-4%	3.1	0.62	4.0	5	5%	1.7	i	0.077	0.24	-11	-24	28	i
> Cc1[nH]nc(-c2ccc(OCc3cnn(-c4ccccc4)c3)cc2O)c1Oc1ccc(F)cc1
 : -0.19	i	0%	2.2	-0.21	0.2	7	-8%	1.3	i	0.16	-0.034	7	-5	49	i
> CCOC(=O)CN1C(=O)C(Sc2n[nH]c(-c3ccc(C)cc3)n2)CCc2ccccc21 (centres undefined)
 : -0.14	i	-5%	2.7	1.7	11	4	9%	1.5	i	-1.2	2	33	-14	20	i
> O=C(Nc1ccc(-n2nncc2-c2ccco2)cc1)c1ccc(F)cc1
 : -0.29	i	-1%	5.7	-0.27	5.7	-2	4%	4.2	i	0.64	-0.57	21	19	14	i
> O=C(N/N=C/c1ccc(O)c(O)c1)c1ccc(CSc2cccc3cccnc23)cc1
 : 0.12	i	10%	3.9	0.49	5.8	-5	14%	2.8	i	-1.7	0.67	-3	6	30	i
> O=C(CNc1cccc2ccccc12)N/N=C/C(Br)=C/c1ccccc1
 : -0.1	i	24%	48*	0.017	34*	66*	8%	22*	i	-1.3	-0.24	72*	2	36	i
> O=C(NCc1ccccn1)c1cccc([N+](=O)[O-])c1
 : 0.12	i	3%	1.3	-0.17	4.3	6	9%	1.2	i	0.38	-0.11	19	-4	46	i
> COc1c(N2CCN(C(=S)Nc3ccccc3)C(C)C2)c(F)cc2c(=O)c(C(=O)O)cn(C3CC3)c12 (centres undefined)
 : 0.033	i	-15%	1.8	0.41	6.2	9	3%	1.6	i	-0.33	0.35	-4	-5	.	.
> O=C(Oc1c(Br)cc(C(=S)N2CCOCC2)cc1Br)c1ccc(Cl)cc1
 : -0.17	i	12%	3.4	-0.075	7.0	0	-4%	1.8	.	0.51	0.74	11	-23	55	i
> O=C(NC1CCS(=O)(=O)C1)c1c(NC(=O)C2COc3ccccc3O2)sc2c1CCCC2 (centres undefined)
 : -0.25	i	26%	2.7	0.13	6.8	12	-3%	2.8	i	0.46	0.17	5	-1	6	i
> Cc1oc2ccc(NS(=O)(=O)c3ccc(C(C)(C)C)cc3)cc2c1C(=O)Nc1ccccc1
 : -0.19	i	7%	1.6	-0.21	6.4	6	7%	1.3	i	0.32	0.1	41	1	35	i
> CN1[C@@H]2CC[C@H]1CC(OC(=O)[C@H](CO)c1ccccc1)C2 (some centres undefined)
 : .	.	.	.	.	.	.	.	.	.	.	.	.	.	21	i
> CCC(C)C(NS(=O)(=O)c1ccc(C)cc1)C(=O)Oc1ccc2c3c(c(=O)oc2c1)CCC3 (centres undefined)
 : -0.12	i	-11%	3.3	0.81	2.3	2	1%	1.8	i	0.95	0.14	49	15	32	i
> CCOc1ccc(N(CCC#N)S(=O)(=O)c2ccc(OC)cc2)cc1
 : -0.21	i	5%	2.4	-0.42	8.2	-9	-3%	1.9	i	1.1	-0.85	-22	5	36	i
> Cc1cccn2c(/C=N/OCc3ccc(F)cc3)c(-c3ccc(Cl)cc3)nc12
 : -0.24	i	8%	2.1	-0.78	7.6	25	4%	2.1	i	0.51	-0.48	28	4	19	i
> Cc1ccccc1NC(=O)Cn1cnc2c1c(=O)n(C)c(=O)n2C
 : -0.23	i	-1%	3.3	-0.85	1.6	1	7%	1.2	i	1	-0.23	-15	0	7	i

Full records, looked up by structure. Screens in order: Dynein cargo inh cytoplasmic EGFP, Autophagy mod, M17LAP inhibition, MT stabilizer, Dynein cargo inh nuclear GR-EGFP, MT stabilizer cytotoxicity %, WT yeast gro inh mutant strain, M1AAP inhibition, MT stabilizer Hoechst-high %, Yfh1-off respiration, Dynein cargo inh cell count, Dynein cargo inh, WT yeast gro inh, Autophagy mod cell loss 18 h, T cell modulator vesicle-bound %, T cell modulator
CCC(C)C(NS(=O)(=O)c1ccc(C)cc1)C(=O)Oc1ccc2c3c(c(=O)oc2c1)CCC3 (centres undefined) is listed as -0.12, i, -11%, 3.3, 0.81, 2.3, 2, 1%, 1.8, i, 0.95, 0.14, 49, 15, 32, i
Cc1cccn2c(/C=N/OCc3ccc(F)cc3)c(-c3ccc(Cl)cc3)nc12 is listed as -0.24, i, 8%, 2.1, -0.78, 7.6, 25, 4%, 2.1, i, 0.51, -0.48, 28, 4, 19, i
Cc1ccccc1NC(=O)Cn1cnc2c1c(=O)n(C)c(=O)n2C is listed as -0.23, i, -1%, 3.3, -0.85, 1.6, 1, 7%, 1.2, i, 1, -0.23, -15, 0, 7, i

Only part of the results is shown; the hit share may differ from the screen's.
